Assay outcomes from PubChem BioAssay.
Mtb bLac sens = beta-lactam sensitization of Mtb H37Rv; M. tuberculosis H37Rv growth with meropenem, percent inhibition; hits of this screen are not shown here; inhibition, % at 25 µM; 0.27% of 330,000 active;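 active = about 74% or more and at least 40 points above the plate without the antibiotic, then above 30% in a dose series; inconclusive = first-round hits that could not be retested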;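 note: growth measured after seven days incubation then overnight dye step; 0% = bacteria only wells and 100% = bacteria with antibiotic; twin plates without the antibiotic show which effects depend on it; some results filed as inactive read as strong as hits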
Mtb growth = M. tuberculosis H37Rv growth inhibitors, H37Rv strain (AID 1626); M. tuberculosis H37Rv growth inhibition; higher % means a stronger effect; inhibition, % at 10 µM, or IC50 in µM where a hit was titrated; 0.95% of 220,000 active;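 active = confirmed in a dose series; inconclusive = inhibition above 80% but not taken into the dose series; inactive = below 80% or under 30% at every dose of the series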;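 note: bacteria incubated seven days before Alamar blue readout; 0% = bacteria only wells and 100% = bacteria with antibiotic wells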
RecA intein inh = Mtb RecA intein splicing inhibition; P9WHJ3; cell-free RecA intein splicing, fluorescence; inhibition, %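 (about 9 µM by stock and volumes)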; 0.75% of 290,000 active; AID 2221; in the data active = inhibition above about 30%; inconclusive = no clear call, values can overlap the other calls;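 note: 0% = vehicle wells and 100% = reference inhibitor control wells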
Target sequence (P9WHJ3 whole entry, looked up): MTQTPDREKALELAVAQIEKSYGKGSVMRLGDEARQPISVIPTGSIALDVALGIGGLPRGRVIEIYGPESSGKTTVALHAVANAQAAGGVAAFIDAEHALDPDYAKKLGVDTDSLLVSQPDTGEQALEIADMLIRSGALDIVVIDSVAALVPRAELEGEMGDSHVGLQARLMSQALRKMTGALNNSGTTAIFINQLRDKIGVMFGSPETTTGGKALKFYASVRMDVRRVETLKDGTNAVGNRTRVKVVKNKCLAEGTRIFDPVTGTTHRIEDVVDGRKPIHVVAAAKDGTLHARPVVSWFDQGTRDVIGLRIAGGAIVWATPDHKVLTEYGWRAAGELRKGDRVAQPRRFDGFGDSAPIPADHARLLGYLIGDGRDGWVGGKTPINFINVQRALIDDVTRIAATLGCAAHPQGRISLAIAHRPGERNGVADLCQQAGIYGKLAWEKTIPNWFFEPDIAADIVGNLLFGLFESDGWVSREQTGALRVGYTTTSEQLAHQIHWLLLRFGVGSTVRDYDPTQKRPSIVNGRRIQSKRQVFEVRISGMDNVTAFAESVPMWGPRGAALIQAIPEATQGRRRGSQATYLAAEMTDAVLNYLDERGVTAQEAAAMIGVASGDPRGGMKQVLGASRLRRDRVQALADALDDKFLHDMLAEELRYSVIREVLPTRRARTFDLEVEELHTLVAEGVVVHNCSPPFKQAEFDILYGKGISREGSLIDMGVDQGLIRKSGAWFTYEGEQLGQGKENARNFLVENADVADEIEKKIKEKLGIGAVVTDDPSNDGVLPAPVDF
Arbovirus anti = blocks arbovirus infection | arbovirus infection cell-based antiviral screen | 0.37% of 200,000 active | inhibition, % at 10 µM;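 active = inhibition from about 30%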;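 note: bluetongue infection of BSR cells; cell survival read as ATP light after 72 h; 0% = infected wells without compound and 100% = uninfected wells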
YopH PTP inh = blocks Yersinia enterocolitica YopH tyrosine phosphatase | inhibition, %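 (about 10 µM by stock and volumes)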 | fluorescence Ex485/Em525 | AID 898 | 0.16% of 140,000 active;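 active = inhibition of 50% or more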;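 note: controls were vehicle for no effect and minimum signal wells for full effect; inactives centre near -20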
Arbovirus anti repeat = second read-out of Arbovirus anti, no call of its own (marks repeat the call); inhibition, %; measured here: 10K subset replicate screen; many hits read low in the repeat;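 first of two repeat runs on a subset; 0% = infected and 100% = uninfected wells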
An asterisk follows results filed as active; u = inconclusive; x = no result given. The list is partial (hit frequency here may not be typical).

SMILES	Mtb bLac sens	Mtb growth	RecA intein inh	Arbovirus anti	YopH PTP inh	others
CCN(c1ccccc1)S(=O)(=O)c1cccc(C(=O)NCC(c2cccs2)N(C)C)c1 (stereo unspecified)	-5.6	x	1.7	-5.4	x
CCC(C)NC(=O)C(NS(=O)(=O)c1ccc2c(c1)c(=O)n(C)c(=O)n2C)c1ccccc1 (stereo unspecified)	-0.2	-1.9%	x	3.7	-50.4	Arbovirus anti repeat=2.7
O=[N+]([O-])c1cc2c(cc1CNCCc1ccc3c(c1)OCO3)OCO2	3.0	x	-2.8	-2.6	-29.6
COc1ccc(CNC(=O)C2CCC(=O)N(CC3CCCCC3)C2)cc1 (stereo unspecified)	-3.2	x	0.2	x	x
COC(=O)CCCC1=CC2=C(c3ccccc3)C(=O)C(C)(OC(=O)C3CCCC3)C(=O)C2=CN1CCCCO (stereo unspecified)	-1.5	-1.3%	39.2*	x	x
CCN(CC)S(=O)(=O)c1cccc(-c2n[nH]c(=S)n2C)c1	4.0	1.6%	0.9	-0.7	x
Cc1ccc(F)c(NC(=O)c2cncn2-c2ccccc2)c1	7.8	x	1.9	x	x
CCCN(CCC)c1nc(N(CCC)CCC)[nH]c(=O)n1	-3.6	-6.3%	5.2	3.6	x
C[N+]1(C)[C@@H]2CC[C@H]1CC(OC(=O)[C@@H](CO)c1ccccc1)C2 (stereo partly specified)	4.4	x	-1.6	x	x
CCOc1ccc(OCC)c(NC(=O)C2C3C=CC(O3)C2C(=O)NCc2ccco2)c1 (stereo unspecified)	-1.4	-15.6%	x	-2.2	-38.8
COc1ccc(-n2c(CNC(=O)COc3ccc(Cl)cc3)n[nH]c2=S)cc1	-6.5	-2.9%	0.2	5.5	x
COCCn1nnnc1C(c1ccc(Cl)cc1)N1CCN(C(=O)c2ccco2)CC1 (stereo unspecified)	2.8	x	-2.8	x	x
O=C(C(c1ccccc1)c1ccccc1)N1CC[C@@]2(O)CCCC[C@H]2C1	1.4	6.3%	2.2	x	x
CS(=O)(=O)N1CCc2cc(S(=O)(=O)Nc3ccc4c(c3)OCCO4)ccc21	6.0	-1.9%	6.3	13.5	-32.7
O=C(CSc1ccc2nnc(CCNC(=O)c3ccc(F)cc3)n2n1)NCC1CCCO1 (stereo unspecified)	-4.4	x	-0.7	x	x
O=C(O)COc1ccc2c(c1)OCCO2	0.8	-0.5%	0.1	3.5	-37.2	Arbovirus anti repeat=1.9
c1ccc2[nH]c(SN3CCOCC3)nc2c1	x	-12.4%	x	7.3	-13.6
Cc1csc(C(=O)O)c1NC(=O)c1ccc(F)cc1	-0.5	x	0.8	x	x
CCOC(=O)CCC(=O)Nc1ccc(S(=O)(=O)N2CCc3ccccc32)cc1	-5.2	x	1.4	x	x
CCCC(C)NC(=O)Cn1c(=O)c2c(ncn2CCC(C)C)n(Cc2ccccc2)c1=O (stereo unspecified)	-7.4	x	-0.8	x	x

Next part; the last 2 above are carried over.
SMILES	Mtb bLac sens	Mtb growth	RecA intein inh	Arbovirus anti	YopH PTP inh	others
CCOC(=O)CCC(=O)Nc1ccc(S(=O)(=O)N2CCc3ccccc32)cc1	-5.2	x	1.4	x	x
CCCC(C)NC(=O)Cn1c(=O)c2c(ncn2CCC(C)C)n(Cc2ccccc2)c1=O (stereo unspecified)	-7.4	x	-0.8	x	x
CCOC(=O)c1ccc(NC2c3ncccc3C(=O)N2Cc2ccc(F)cc2)cc1 (stereo unspecified)	3.2	3.6%	4.5	4.9	-28.4
COC(=O)c1cc(S(=O)(=O)N2CCC(C)CC2)ccc1F	-2.4	-1.8%	1.0	3.3	-0.3
Cc1ccc(SC(CC(=O)c2ccc(C)cc2)C(=O)O)cc1 (stereo unspecified)	56.1	-11.7%	-2.8	1.6	-27.1
CCOC(=O)C1CCCCN1C(=O)c1oc2c(Cl)cc(C)cc2c1C (stereo unspecified)	u	x	14.8	x	x
CCNS(=O)(=O)c1cc(-c2nnc(OC)c3ccccc23)ccc1C	-4.0	x	0.0	x	x
CCN(CCCNC(=O)C1CCN(S(=O)(=O)c2cnc[nH]2)CC1)c1ccccc1	-0.8	-6.7%	1.2	3.4	-16.6
COc1ccc(C)cc1S(=O)(=O)N(C)CC(=O)N1CCCC1	2.2	x	-4.9	x	x
CCOc1ccc(CNC(=O)C(C)n2nc(C)c3c(C)n(-c4ccccc4)nc3c2=O)cc1 (stereo unspecified)	4.5	x	2.0	x	x
O=C1NC(=O)N(Cc2ccc(F)cc2)C(=O)/C1=C\c1ccc(N2CCCC2)cc1	-1.0	-2.9%	1.3	x	x
COc1ccccc1N(C)S(=O)(=O)c1ccc(C(=O)OC(C)C(=O)NCc2ccc3c(c2)OCO3)cc1 (stereo unspecified)	11.1	4.8%	-2.6	-13.4	x
Cc1ccc(S(=O)(=O)CCC(=O)Nc2sccc2C#N)cc1	-11.7	x	-6.1	x	x
CCOC(=O)c1c(NC(=O)c2noc(C)c2[N+](=O)[O-])sc(C(C)=O)c1C	-5.2	-3.4%	-1.8	9.4	x
COc1ccc(OC)c(NC(=O)[C@@H]2CCCN2C(=O)c2cccs2)c1	5.3	-3.2%	-1.5	-3.3	-20.7
Cc1cc(C)c2c(=O)[nH]c(SCC(=O)c3ccc(C(C)C)cc3)nc2n1	-5.5	-1.0%	0.7	9.0	-13.5
CCOC(=O)N1CCC(NC(=O)C2CCN(S(=O)(=O)c3c(C)noc3C)CC2)CC1	7.1	-5.4%	1.3	2.4	-19.6
O=C(NCc1ccc2c(c1)OCO2)C(=S)N1CCOCC1	-2.8	7.0%	-0.9	-5.0	x
CCCCNCc1cc(Br)c(OCC(=O)NCc2ccccc2)c(OC)c1	84.9	-2.0%	-0.5	-9.5	x
C=CCN1C(=O)C(Cc2ccc(OC)cc2)SC1=Nc1ccc(C(=O)O)cc1 (stereo unspecified)	5.7	4.5%	1.7	5.2	-19.6
COc1ccc(CN2CCC(n3nccc3NC(=O)C3CCCC3)CC2)c(OC)c1	3.7	x	-3.2	x	x
CCOC(=O)C1Cc2cc3c(cc2C1=O)CC(C(=O)OCC)C3=O (stereo unspecified)	x	-0.6%	0.5	-8.1	-40.6
COc1ccc2oc(N)c(C=O)c(=O)c2c1	-0.3	-8.5%	x	x	x
CCC(CC)C(=O)Nc1cccc(C(=O)N2CCOCC2)c1	0.1	-11.5%	-0.9	2.2	7.6
COC(=O)c1cc(=O)nc2scc(C)n12	-6.4	2.0%	2.3	5.6	-11.9	Arbovirus anti repeat=4.0
CC(c1ccccc1)n1cc(C(=O)NCCN2CCOCC2)nn1 (stereo unspecified)	8.2	-4.4%	-1.1	-3.1	23.5
CCN(CC)c1ccc(CNCCc2ccccc2F)cc1	-5.7	7.9%	-3.3	-11.8	x
Cc1c(Cl)cccc1N1CC(C(=O)Nc2nccs2)CC1=O (stereo unspecified)	-8.3	-2.0%	0.6	7.7	-43.5
Cc1[nH]c2ccccc2c1N=Nc1cccc(C(=O)O)c1	4.6	12.3%	2.2	1.0	5.2
CC(=O)Nc1ccccc1S(=O)(=O)CC1CC1(Cl)Cl (stereo unspecified)	3.5	x	-1.1	x	x
C1=C(CCNCc2ccccc2)CCCC1	-3.3	1.2%	-6.6	9.2	14.7
CC(C(=O)N1CCN(C)CC1)N1C(=O)c2ccccc2C1=O (stereo unspecified)	-8.3	-7.8%	3.7	-0.7	-18.7
N#Cc1ccsc1NC(=O)COc1ccc(-c2nnco2)cc1	-5.2	-5.7%	0.9	1.0	-35.2
COc1ccc(OC)c(NC(=O)NCCc2cccc(Cl)c2)c1	-1.2	3.5%	-1.2	-17.9	x
O=C(Nn1c(COc2ccccc2)nc2ccccc2c1=O)C(Cl)(Cl)Cl	3.1	x	0.9	x	x
COc1ccc([C@H]2/C=C\CN(S(=O)(=O)c3cccc4cccnc34)[C@@H](C)C(=O)N2Cc2ccc(F)cc2)cc1	-11.5	-2.2%	3.0	x	x
Cc1c(C#N)sc2nc(-c3ccccc3)nc(N3CCCC3)c12	4.8	-1.7%	-2.3	11.3	7.6
CCOC(=O)c1cn(Cc2ccccc2)nc1-c1ccccc1	6.2	x	6.4	x	x
COc1cccc(NC(=S)N(CCN2CCCCC2)Cc2ccco2)c1	-5.7	-0.1%	x	15.1	x
O=C1c2ccsc2SCCN1Cc1ccc(Cl)cc1	-1.7	9.1%	3.8	-0.7	2.6
COc1ccc(S(=O)(=O)N2CCc3ccccc3C2)cc1OC	3.7	-0.2%	4.4	9.8	-2.5
CCCc1cc(NCC2CCCO2)n2c(nc3ccccc32)c1C#N (stereo unspecified)	-12.2	-1.4%	-93.3	-28.2	-10.1

Nothing new here: entries from further up.
SMILES	Mtb bLac sens	Mtb growth	RecA intein inh	Arbovirus anti	YopH PTP inh	others
COc1ccc2oc(N)c(C=O)c(=O)c2c1	-0.3	-8.5%	x	x	x
CCC(CC)C(=O)Nc1cccc(C(=O)N2CCOCC2)c1	0.1	-11.5%	-0.9	2.2	7.6
COC(=O)c1cc(=O)nc2scc(C)n12	-6.4	2.0%	2.3	5.6	-11.9	Arbovirus anti repeat=4.0
CC(c1ccccc1)n1cc(C(=O)NCCN2CCOCC2)nn1 (stereo unspecified)	8.2	-4.4%	-1.1	-3.1	23.5
CCN(CC)c1ccc(CNCCc2ccccc2F)cc1	-5.7	7.9%	-3.3	-11.8	x
Cc1c(Cl)cccc1N1CC(C(=O)Nc2nccs2)CC1=O (stereo unspecified)	-8.3	-2.0%	0.6	7.7	-43.5

Next records:
SMILES	Mtb bLac sens	Mtb growth	RecA intein inh	Arbovirus anti	YopH PTP inh	others
O=C(N/N=C/c1ccc(O)cc1)c1cc(C23CC4CC(CC(C4)C2)C3)[nH]n1	-4.3	-2.5%	3.2	x	x
Cc1nc2ccccn2c1-c1csc(Nc2cccc(O)c2)n1	x	-0.1%	4.2	-18.0	x
COc1cc(C(F)(F)F)c(C(=O)N(C)Cc2cccc(Cl)c2)cn1	-3.1	2.5%	0.6	x	x
O=C(NCc1ccccn1)c1ccc(OC2CCN(Cc3ccc(F)cc3F)CC2)cc1	1.7	x	0.5	x	x
Cc1ccc(N=Cc2c(O)n(-c3nccs3)c(=O)c3ccccc23)c(C)c1	3.8	-0.5%	-2.6	-16.1	-44.5
COCc1cc(C)nc(OCC(=O)N/N=C/c2cc(C)n(-c3c(C)cccc3C)c2C)c1C#N	7.3	-2.1%	-1.1	9.2	-10.2
Cc1ccc(C(=O)NCCc2nnc3ccc(NCCCN4CCOCC4)nn23)cc1	-6.4	x	-5.6	x	x
O=C(OC(C(=O)NC1CCCCC1)c1ccc(C(F)(F)F)cc1)c1ccco1 (stereo unspecified)	-8.3	x	1.2	x	x
O=C(Nc1ccccc1Br)C(=O)N1CCCC1	4.3	-4.1%	-0.3	-2.4	-12.7
COc1ccc(NC(=O)c2nnn(CC(=O)Nc3ccccc3OC)c2N)c(OC)c1	1.4	x	-2.6	x	x
CCC(C)NC(=O)NC(=O)CSc1nnc(-c2ccccc2F)n1C1CC1 (stereo unspecified)	0.4	x	-0.2	x	x
COc1cccc(-c2nc(-c3ccncc3)no2)c1	8.0	x	-1.7	x	x
Nn1c(SCC(=O)N2CCCCCC2)nnc1-c1ccncc1	-7.3	0.3%	-2.2	7.6	-17.9
CC(CN)(NS(=O)(=O)c1ccccc1)c1ccccc1 (stereo unspecified)	-2.6	x	-1.6	x	x
COc1cccc(CNC(=O)c2csc3c2CCCC3)c1	1.8	x	1.7	x	x
CC(C)(C)n1nc2c(c1NC(=O)Cc1cccc3ccccc13)CS(=O)C2 (stereo unspecified)	-1.1	6.8%	-0.8	6.8	3.5
O=C(CN1C(=O)NC(Cc2ccccc2)C1=O)Nc1ccc(OC(F)F)cc1 (stereo unspecified)	-5.7	x	-0.5	x	x
CN(C)/C=C1\N=C(c2cccnc2Oc2ccc(Cl)cc2)OC1=O	0.9	11.7%	-3.9	x	x
COC(=O)C1=C(c2cc3ccccc3o2)C[C@@H]2CC[C@H]1N2C(=O)NCCO	0.1	-7.1%	-0.6	x	x
CC(C)(CNc1ccc([N+](=O)[O-])cc1C#N)N1CCOCC1	-6.9	-2.3%	-1.0	10.1	x
CCCCSc1nc(O)c(C2OC(=O)c3c2ccc(OC)c3OC)c(=O)n1C (stereo unspecified)	-9.5	-0.7%	0.2	-0.4	11.7
O=C(c1ccc(COc2ccc(F)cc2)o1)n1cccn1	2.4	-3.2%	20.7	-0.3	-6.2
O=C(N/N=C/C(Br)=C/c1ccccc1)c1cnccn1	100.1	u	1.8	x	x
COc1ccc(S(=O)(=O)N=Nc2c(O)[nH]c3ccccc23)cc1	-1.4	-4.3%	0.2	2.8	x
COCC(C)n1c(COc2ccccc2F)nnc1SCC(=O)c1c(N)n(C)c(=O)n(C)c1=O (stereo unspecified)	-3.3	1.2%	-0.5	3.6	x
